Screening results as filed in PubChem.
CtBP-E1A blk = inhibitors of CtBP/E1A interaction; 0.49% of 340,000 active; AlphaScreen GST-E1A/His-CtBP binding, 1536-well; hits give low values; control for the full effect not named in the record; activity change, % (concentration not given with the values); in the data active means activity change below about -65%; inconclusive means about -30% to -65%; inactive means above about -30%; also: % is scaled to controls: 0 for no effect and ±100 for the full control effect
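In 5 uL wells, 23 nL compound meets equimolar GST-E1A and His-CtBP (5X stock 125 nM each) for 2 h, 37 °C. Beads (5X, 50 ug/mL) then 1 h, 37 °C, dark.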
PINK1 modulator = PINK1 expression modulation; 0.2% of 410,000 active; PINK1 immunofluorescence, high-content cytometry, 24 h; Potency, µM (doses to about 76.6 µM), for the others: at the highest dose activation (PINK1 increase), actives largely listed as activators; AID 624263; active = well fitted activation curve with a large enough effect; inconclusive = small, poorly fitted or top-dose-only effect; inactive = flat fitted curve, though single readings scatter; cell line not stated here;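 also: potency is read from the fitted curve at half-maximal effect; % of control where 0% means no effect; nearly all actives have a fitted effect of over 65% in size; a mitochondrial uncoupler was the plate control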
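Stable cell line treated 24 h with compounds at 5 concentrations (CCCP controls), then fixed and immunostained for PINK1 plus nuclear and cell stains; PINK1 immunofluorescence quantified by laser-scanning microplate cytometry.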
Six1-Eya2 inh = blocks human Six1 binding to Eya2; activity change, % (test concentration not listed); AlphaScreen GST-Six1/His-Eya2 binding, biochemical; hits give low values; control for the full effect not named in the record; 0.56% of 360,000 active; Q15475+O00167; in the data active = activity change below about -65%; inconclusive = about -30% to -65%; inactive = above about -30%; also: % is scaled to controls: 0 for no effect and ±100 for the full control effect; compound concentration not given in the record
Target sequence (O00167 whole entry, looked up): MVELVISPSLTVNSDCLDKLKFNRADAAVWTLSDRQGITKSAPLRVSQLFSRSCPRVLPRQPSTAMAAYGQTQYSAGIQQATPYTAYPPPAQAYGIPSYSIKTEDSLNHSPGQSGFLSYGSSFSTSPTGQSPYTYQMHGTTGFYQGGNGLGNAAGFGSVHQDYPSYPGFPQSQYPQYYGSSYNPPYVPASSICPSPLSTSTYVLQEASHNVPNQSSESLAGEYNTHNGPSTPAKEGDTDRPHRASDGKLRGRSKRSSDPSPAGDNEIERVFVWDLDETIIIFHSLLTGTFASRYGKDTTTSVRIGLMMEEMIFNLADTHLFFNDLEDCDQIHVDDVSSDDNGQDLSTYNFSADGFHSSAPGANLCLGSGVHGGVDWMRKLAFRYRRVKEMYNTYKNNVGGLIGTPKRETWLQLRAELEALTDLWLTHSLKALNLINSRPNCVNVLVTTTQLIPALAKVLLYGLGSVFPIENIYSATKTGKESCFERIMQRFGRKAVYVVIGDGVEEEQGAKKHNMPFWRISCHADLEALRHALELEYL
Target sequence (Q15475 whole entry, looked up): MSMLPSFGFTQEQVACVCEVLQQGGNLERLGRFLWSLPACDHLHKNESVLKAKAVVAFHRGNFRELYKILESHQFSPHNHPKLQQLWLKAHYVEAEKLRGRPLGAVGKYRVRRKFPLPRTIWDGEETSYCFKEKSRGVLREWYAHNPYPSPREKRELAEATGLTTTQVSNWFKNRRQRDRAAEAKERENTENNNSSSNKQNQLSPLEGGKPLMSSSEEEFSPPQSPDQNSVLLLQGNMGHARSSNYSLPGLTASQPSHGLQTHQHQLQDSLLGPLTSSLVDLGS
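AlphaScreen luminescence read after one hour at 37 °C in darkness. Pin-transferred compounds met GST-Six1 and His-Eya2 protein (5X stock 250 nM/500 nM) plus glutathione donor and Ni-chelate acceptor beads (5X, 50 ug/mL).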
D2 agonist = activates the human D2 dopamine receptor. 0.084% of 360,000 active. DiscoveRx PathHunter D2 beta-arrestin, luminescence, 90 min; 100% = 57 uM dopamine signal. P14416. activation, % (test concentration not listed). AID 624465; in the data active = activation above about 40%; inconclusive = about 15% to 40%; inactive = below about 15%; also: compound concentration not given in the record; the text of the record calls up to 30% inactive
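DiscoveRx PathHunter D2 beta-arrestin cells (2,100/well) attached overnight, then compound-stimulated 90 min at 37 C in HBSS/10 mM HEPES/0.1% Tween-20 buffer; beta-galactosidase complementation read by luminescence after 1 h at ambient temperature. Dopamine 57 uM final (EC100) as control.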
TRPML1 agonist = agonists of human TRPML1 channel; AID 624414; Q9GZU1; 0.12% of 410,000 active; activation, % (concentration not given with the values); TRPML1-expressing cells, Ca2+ dye fluorescence, FDSS; host cell line not named in the record; reference of the full effect not given here; in the data active = activation above about 50%; inconclusive = about 30% to 50%; inactive = below about 30%; also: 0% is about no effect; the text of the record puts the active cut at 80%
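Agonist activity was taken from a 110 s kinetic Ca2+ dye read on the FDSS after pinning compounds onto TRPML1-DL cells. The cells were seeded at 1,500/well with Tet inducer, incubated about 16 h, then dye-loaded at room temperature.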
TRPML1 inh = human mucolipin-1 channel inhibition | Q9GZU1 | TRPML1-inducible cells, Ca2+ dye fluorescence, FDSS; hits give low values; inhibition of EC80 agonist-evoked calcium signal | activity change, negative = inhibition, % (concentration not given with the values) | 0.02% of 390,000 active | AID 624415; in the data active means activity change below about -50%; inconclusive means about -30% to -50%; inactive means above about -30%;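 also: stimulus is agonist 54-4 at its EC80 concentration; % is scaled to controls: 0 for no effect and ±100 for the full control effect; compound concentration not given in the record; the text of the record puts the active cut at -80%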
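Tet-induced TRPML1-DL cells loaded with Ca8 no-wash calcium dye were read kinetically on FDSS. Compound addition was followed by EC80 agonist 54-4 (4 uM final); inhibition was read over 110 s.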
Starred values were filed as active, the others as inactive; ? = inconclusive; / = not tested or not shown; [ ] = another dose, or the depositor's remark.

SMILES	CtBP-E1A blk	PINK1 modulator	Six1-Eya2 inh	D2 agonist	TRPML1 agonist	TRPML1 inh
O=c1c2ccccc2c(-c2ccc(O)cc2)nn1-c1cccc(C(F)(F)F)c1	-0.7	0.2%	-9.1	-1.3	1.6	-19.4
CCOC(=O)Cc1cc(=O)n2[nH]c(C)cc2n1	-0.4	-1.6%	2.6	-2.0	-0.3	-2.3
CC(C)(C)OC(=O)C[C@H]1C/C=C\C[C@H](CC(=O)N(CCO)Cc2ccccc2)C(=O)NC[C@H](c2ccccc2)OC1=O	0.3	0.2%	-1.9	-12.9	-0.6	-1.8
COC(=O)c1cn(C(=O)c2ccco2)c2ccccc12	4.4	3.6%	0.0	1.9	0.8	10.2
Nc1c(-c2ccc(Cl)cc2)cnc2c(-c3ccccc3)cnn12	-0.6	2.9%	8.3	0.3	2.3	-7.5
CCCn1c(C2CC(=O)N(c3ccc(C)cc3)C2)nc2ccccc21 (stereo unspecified)	7.1	/	-1.9	-1.7	0.0	-21.3
CCCN1CCN(C(=S)Nc2ccc([N+](=O)[O-])cc2)CC1	-2.8	1.5%	1.9	-2.9	-0.3	-11.0
O=C(NNc1nc2ccccc2s1)c1ccccc1F	29.3	0.9%	0.0	1.3	-0.1	-2.3
CCOC(=O)c1sc2nc(CC(=O)OC)nc(NCCN(CC)CC)c2c1C	0.9	-0.9%	9.6	-3.8	0.6	-6.1
CCOC(=O)c1cnc2cc(C)nn2c1C	3.2	-0.3%	-3.3	-0.2	-0.9	-5.0
Cc1ccccc1C(=O)NC(=S)Nc1ccc(N2CCN(C(=O)c3ccccc3)CC2)cc1	-19.7	0.3%	-8.9	-0.1	0.0	35.6
C/C(=N/NS(=O)(=O)c1ccc(C)cc1C)c1c[nH]c2ccccc12	-22.2	3.9%	-6.1	4.8	0.1	21.1
COC(CNC(=O)c1cc(C)nn1-c1ccccc1)OC	-2.9	-2.0%	3.9	1.9	5.0	-13.2
COc1ccc(CC(=O)OCc2csc(CC(=O)Nc3ccc(C)cc3)n2)cc1	-0.6	4.1%	-4.8	-2.8	0.4	7.6
O=C1NC[C@@H](CCCCN2C[C@H](Cc3ccc(O)cc3)N(CCC3CCCCC3)C(=O)C2=O)N(Cc2ccccc2)C1=O	-18.2	0.5%	-26.3	/	0.6	/
CCN1CCSc2ccc(C(=O)NCc3ccc(OC)cc3)cc21	/	1.0%	/	/	1.5	25.4
Cc1nc2ccc(Br)cn2c(=O)c1Cl	17.8	-2.1%	3.9	-4.2	-0.3	-10.3
COC(=O)c1c(NC(=O)C(C)(C)C)csc1C	10.7	-0.8%	6.9	-9.0	2.1	50.7
O=C(Cc1c(F)cccc1Cl)N1CCN(S(=O)(=O)c2cccc(F)c2)CC1	-2.9	0.8%	3.4	-5.0	0.5	-9.6
Cc1nc2ccc(NC(=O)c3ccc([N+](=O)[O-])cc3)cc2[nH]1	10.5	-1.7%	3.4	12.9	0.1	-11.1
CC(C)[C@H](NC(=O)NCc1ccc(Cl)cc1)C(=O)O	13.4	-1.6%[38.3 µM]	3.7	-2.0	-0.7	-4.4
COC(=O)c1ccccc1NC(=O)CSc1n[nH]c(-c2ccncc2)n1	-1.5	0.2%	-4.2	0.3	0.4	2.0
Cc1cccc(NC(=O)CCCN2C(=O)C3CC=CCC3C2=O)c1 (stereo unspecified)	-14.0	-0.8%	1.6	-4.2	0.4	4.5
CCOC(=O)[C@H]1[C@H]2COc3ccc(C)cc3[C@@H]2N2C(=O)c3cc(C)ccc3NC(=O)[C@@]12C	-1.9	3.1%	-4.9	-1.7	-1.0	1.3
CC(C)(C)Cc1c(-c2ccco2)nc2ccc(Cl)cn12	1.6	?	-4.1	-4.7	-0.6	/
COc1cccc(NC(=O)COc2nc3ccccc3nc2C)c1	12.4	-1.4%	-4.4	-4.2	0.0	-3.8
CCOc1ncccc1C(=O)Nc1ccc(OC)c(S(=O)(=O)N2CCCCC2)c1	9.3	2.1%	-3.2	-3.3	0.7	18.0
CC1CCN(c2c(NCC3CCC(C(=O)NC4CCCCCC4)CC3)c(=O)c2=O)CC1 (stereo unspecified)	2.8	0.7%	1.8	1.0	1.3	29.0
CCOC(=O)N1CCC(N2C(=O)c3ccccc3C2Nc2cc(Cl)c(OC)cc2OC)CC1 (stereo unspecified)	-11.2	2.6%	-2.8	-4.0	0.8	28.3
COC(=O)Cn1c2nc3ccccc3nc2c2cccc(C)c21	-6.3	11.2%	11.5	2.1	0.6	12.3
CCC(=O)Nc1ccc(C(=O)COC(=O)c2nc3nccc(C)n3n2)cc1	5.7	2.9%	-20.6	-0.1	-0.3	3.8
COc1ccc2oc(C(=O)OCC(=O)N(Cc3ccccc3)C(C)C)c(C)c2c1	-16.4	0.8%	-0.8	-0.9	1.9	7.7
CCCCc1nc(C(N)=O)c2[nH]c(=O)n(-c3ccc(OC)c(OC)c3)c2n1	3.7	-1.6%	0.3	-0.9	0.4	2.1
COc1ccc(Cl)cc1Nc1nc(Cl)nc(NCCO)n1	-4.7	0.3%	?	1.3	-0.9	-6.2
Cc1nnc2ccc(-c3ccc(NS(=O)(=O)c4ccc(F)cc4F)cc3)nn12	-9.6	2.4%	-19.6	-0.8	0.1	23.8
O=S(=O)(CCc1nc2ccccc2[nH]1)c1ccc(Cl)cc1	10.4	-0.4%	-0.8	-2.9	0.5	-19.0

Rewritten in markdown: entries from further up.
| Compound | CtBP-E1A blk | PINK1 modulator | Six1-Eya2 inh | D2 agonist | TRPML1 agonist | TRPML1 inh |
| --- | --- | --- | --- | --- | --- | --- |
| CCOC(=O)N1CCC(N2C(=O)c3ccccc3C2Nc2cc(Cl)c(OC)cc2OC)CC1 (stereo unspecified) | -11.2 | 2.6% | -2.8 | -4.0 | 0.8 | 28.3 |
| COC(=O)Cn1c2nc3ccccc3nc2c2cccc(C)c21 | -6.3 | 11.2% | 11.5 | 2.1 | 0.6 | 12.3 |
| CCC(=O)Nc1ccc(C(=O)COC(=O)c2nc3nccc(C)n3n2)cc1 | 5.7 | 2.9% | -20.6 | -0.1 | -0.3 | 3.8 |
| COc1ccc2oc(C(=O)OCC(=O)N(Cc3ccccc3)C(C)C)c(C)c2c1 | -16.4 | 0.8% | -0.8 | -0.9 | 1.9 | 7.7 |

(list continues)
SMILES	CtBP-E1A blk	PINK1 modulator	Six1-Eya2 inh	D2 agonist	TRPML1 agonist	TRPML1 inh
CCOc1ccc(NC(=O)CN(C)C(=O)CC2CC3CCC2C3)cc1OCC (stereo unspecified)	-6.9	-0.6%	-5.2	-1.4	0.3	13.6
Cc1ccnc(NC(=O)Nc2cccc(F)c2)n1	-10.2	-1.2%	-1.6	1.1	4.0	21.5
CCOC(=O)C(NC(=O)c1cccnc1)(Nc1cccc(C)n1)C(F)(F)F (stereo unspecified)	9.9	0.5%	4.3	-1.4	1.4	21.6
Cc1nc2ccccc2c(=O)n1NC(=O)Cc1ccc([N+](=O)[O-])cc1	-20.9	-0.2%	-4.6	2.8	1.5	-9.7
CC(=O)NCCc1ccc(S(=O)(=O)Nc2ccc3c(c2)OCCO3)cc1	4.4	0.6%	2.3	-5.9	-0.2	41.0
Clc1cccc(N/N=C/c2ccncc2)c1	24.6	0.0%	7.4	6.3	0.6	-0.7
CCn1nccc1C(=O)Nc1cccc(C)c1C	5.1	0.5%	5.7	-1.7	-0.1	-7.5
COc1cc(NC(=O)c2cnn3c(C(F)F)cc(C4CC4)nc23)c(OC)cc1Cl	0.2	0.7%	-1.6	-2.0	-0.5	12.2
Cc1ccc(C(=O)NCC(=O)OCc2c(F)cccc2Cl)cc1	1.6	0.2%	23.1	-2.9	1.1	-17.2
Cc1nn(-c2ccccc2)c2c1C(c1ccc([N+](=O)[O-])cc1)C(C#N)=C(N)O2 (stereo unspecified)	/	0.1%	-14.1	10.0	0.1	-3.5
COc1cccc(C(=O)N2CCN(Cc3cn[nH]c3-c3ccc(F)cc3F)CC2)c1	1.5	-0.8%	-0.7	-0.7	0.4	-15.3
O=C(CSc1cccc2cccnc12)N/N=C/c1ccc(F)cc1	?	-2.7%	-67.0*	-1.7	-0.2	-0.7
COc1ccc(/C=C/C(=O)NC(=S)N2CCSCC2)cc1	-12.7	1.4%	-3.7	2.0	-0.6	0.2
Cc1ccc2nc(NCCNC(=O)c3ccccc3)c(C#N)cc2c1	/	5.5%	9.9	3.5	/	/
COc1ccc2c(c1)[nH]c1c(=O)n(Cc3ccncc3)cnc12	-22.7	0.3%	-1.7	-2.9	/	/
COc1ccc(N2CC(O)(c3ccc(C)cc3)[N+]3=C2CCCC3)cc1 (stereo unspecified)	-0.6	1.9%	4.6	-1.2	0.3	12.1
Cc1nc(SCC(=O)c2ccccc2)[nH]c(=O)c1Oc1ccc(Cl)cc1	-2.5	-0.7%	-8.1	3.2	1.1	42.7
Cn1c(CCc2ccccc2)nnc1SCC(=O)N1CCOCC1	-1.7	-0.7%[38.3 µM]	6.1	0.3	-0.3	5.6
CCCCCOc1ccc(C(=O)CCC(=O)NNC(=O)c2ccncc2)cc1	-0.4	1.0%	-1.2	-0.1	-1.2	1.9
CCOc1cc(/C=N/NC(=O)C(=O)NCCCOC(C)C)cc(Br)c1O	-0.6	-1.7%	3.1	1.4	1.3	1.0
CCOC(=O)c1c(C)oc2c1c(CN1CCN(C(=O)OCC)CC1)c(O)c1ccccc12	0.0	-1.2%	-12.5	?	-0.2	-2.0
COc1ccc(N2CC(O)(c3ccc(OC(F)F)cc3)[N+]3=C2CCCC3)cc1 (stereo unspecified)	-6.2	-0.2%	-9.5	-1.7	1.2	5.9
CCc1nn(CC(=O)NC(C)CCc2ccccc2)c(=O)c2cc3occc3n12 (stereo unspecified)	0.8	13.1%	-0.1	-6.9	-1.2	8.4
O=C(COc1ccc(S(=O)(=O)N2CCOCC2)cc1)N1CCN(c2ccccc2)CC1	-1.5	-2.6%	1.6	-2.7	0.7	-24.8
CCOCCCNC(=O)C(NC(=O)c1ccccn1)c1ccc(C)cc1 (stereo unspecified)	2.2	-0.4%	2.4	-2.5	0.4	16.3
O=C(C[C@@H]1C/C=C\CCC(=O)OC[C@@H]2CCCN2C1=O)NCCO	-23.5	-0.6%	-4.0	-4.9	0.2	-1.4
CN1C(=O)Nc2cccc3cccc1c23	5.5	-0.7%	-2.7	-4.9	/	/
CN(C)S(=O)(=O)c1ccc(C(=O)NCc2ccco2)cc1	3.4	0.3%	-3.1	-2.2	0.1	2.7
CC(=O)c1c(N2CCN(c3ccc(F)cc3)CC2)nc(=S)n(-c2ccccc2)c1C	-4.4	4.9%	-4.4	-6.7	-0.6	-11.4
COCCN1C(=O)c2ccc(C(=O)Nc3cccnc3)cc2C1=O	-4.5	-0.4%	0.1	-1.8	0.2	32.3
COc1ccc(/C=N/N2C(=O)c3ccccc3C2=O)cc1	3.9	2.7%	0.5	-1.5	1.0	3.6
Cc1nc2ccccc2c2oc(C(=O)NCCCN3CC(C)CC(C)C3)cc12 (stereo unspecified)	-20.5	3.0%	-13.7	-0.4	0.2	-0.6
O=C(Nc1ccncc1)Nc1ccccc1Cl	-2.9	-0.7%	0.2	9.4	-0.2	6.9
O=C(Cn1c(NCCCO)nc2ccccc21)c1cccc(Br)c1	0.0	-0.1%	20.5	-6.1	-0.1	0.6
